V. cholerae motility = Vibrio cholerae motility inhibitors, OD read-out (AID 588778). Vibrio cholerae motility, OD read-out; higher % means a stronger effect; test concentration not given here; primary cut-off and reference of the scale not given here; strong numbers were not always called active. 10,000 tested, under 10 active. inhibition, %, or IC50 in µg/mL where a hit was titrated; in the data active = confirmed in a dose series
V. cholerae motility viability = second read-out of V. cholerae motility, no call of its own (marks repeat the call); inhibition, %; measured here: bacterial viability at 10 ug/mL;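 higher means fewer living bacteria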
Starred values were filed as active, the others as inactive. Some of the compounds tested; the hit share may differ from the screen's.

SMILES	V. cholerae motility	V. cholerae motility viability
Fc1ccccc1OCCCCSc1ncccn1	15%	4
C=CCOn1c(=O)c(-c2ccc(OC)c(OC)c2)[n+]([O-])c2ccccc21	2%	0
COC(=O)c1ccc(C(=O)OC)c(NC(=O)C(C)(C)Oc2ccc(Cl)cc2)c1	9%	-1
COc1ccccc1NC(C(N)=O)c1ccc(Br)cc1 (stereo unspecified)	2%	5
CCOC(=O)C(=O)N1CCN(C(=O)c2ccco2)CC1	3%	-4
NC1=NN(c2ccccc2)CC1	-59%	-3
CSc1ccc(S(=O)(=O)Nc2ccc3c(c2)N(C(C)=O)c2ccccc2CC3)cc1	-12%	0
COc1ccc(C(=O)COC(=O)CN2C(=O)C3CC=CCC3C2=O)cc1 (stereo unspecified)	21%	-3
Cc1cccc(N2CCN(C(=O)C3C4CCC(O4)C3C(=O)O)CC2)c1C (stereo unspecified)	2%	-7
Cc1c(Cl)cccc1NC(=O)Nc1ccc(C(=O)N2CCCC2)cc1	16%	31
Cc1nc(CSc2nnc(-c3ccccc3)o2)cs1	2%	0
Cc1ccc2c(c1)C(=O)C(=O)N2	27%	13
O=C(c1ccco1)c1cn(CC(=O)N2CCc3ccccc32)c2ccccc12	-20%	-8
Cc1ccc(C(C)C)c(OCCSc2nc3ccccc3n2CC(O)CO)c1 (stereo unspecified)	6%	-5
Cc1nc2cc(NS(=O)(=O)c3ccccc3F)ccc2s1	-1%	-3
COc1ccc(C(=O)c2c(C)oc3c2cc(OC)c2ccccc23)cc1	5%	0
Cc1ccccc1CSCCNC(=O)CCSc1ccccc1	7%	0
O=C(CSc1ccccc1)Nc1ccc(Sc2ccc([N+](=O)[O-])cc2)cc1	-14%	17
O=C(OCc1ccco1)c1cc(S(=O)(=O)N2CCOCC2)c(Cl)cc1Cl	10%	2
COCCn1c(C)cc(C(=O)CSc2nc3sc(C)c(C)c3c(=O)n2-c2ccccc2)c1C	-9%	-5
COc1cc(OC)cc(C(=O)NCCSC2CCCCC2)c1	4%	2
Cc1c(-c2cccc(Cl)c2)nc2ccccc2c1C(=O)N1CCC2(CC1)OCCO2	13%	4
CC(C)C1Nc2ccc(S(N)(=O)=O)cc2C2C=CCC21 (stereo unspecified)	-3%	-1
O=C(CCN1C(=O)c2ccc([N+](=O)[O-])cc2C1=O)Nc1ccccc1-c1ccccc1	9%	-3
CN(C)C(=O)Oc1ccc2ccccc2c1Cl	16%	5
Fc1ccc(-n2c(-c3ccc4c(c3)OCO4)n[nH]c2=S)cc1Cl	16%	-1
Cn1c(=O)c2c(n(C)c1=O)n(Cc1ccc(Cl)cc1Cl)c(=O)n2Cc1ccccc1Cl	5%	1
N#CCCn1cc(C(=O)n2nnc3ccccc32)c(-c2cccs2)n1	0%	-5
COc1ccc(C(=O)CN(CC(=O)c2ccc(OC)cc2)c2ccc(OC)cc2)cc1	20%	5
CC1CN(C(=O)COc2ccc3ccccc3c2Br)CC(C)O1 (stereo unspecified)	7%	3

Given as a markdown table: part of the list above
| molecule | V. cholerae motility | V. cholerae motility viability |
| --- | --- | --- |
| COc1ccc(C(=O)COC(=O)CN2C(=O)C3CC=CCC3C2=O)cc1 (stereo unspecified) | 21% | -3 |
| Cc1cccc(N2CCN(C(=O)C3C4CCC(O4)C3C(=O)O)CC2)c1C (stereo unspecified) | 2% | -7 |
| Cc1c(Cl)cccc1NC(=O)Nc1ccc(C(=O)N2CCCC2)cc1 | 16% | 31 |
| Cc1nc(CSc2nnc(-c3ccccc3)o2)cs1 | 2% | 0 |
| Cc1ccc2c(c1)C(=O)C(=O)N2 | 27% | 13 |
| O=C(c1ccco1)c1cn(CC(=O)N2CCc3ccccc32)c2ccccc12 | -20% | -8 |
| Cc1ccc(C(C)C)c(OCCSc2nc3ccccc3n2CC(O)CO)c1 (stereo unspecified) | 6% | -5 |
| Cc1nc2cc(NS(=O)(=O)c3ccccc3F)ccc2s1 | -1% | -3 |
| COc1ccc(C(=O)c2c(C)oc3c2cc(OC)c2ccccc23)cc1 | 5% | 0 |
| Cc1ccccc1CSCCNC(=O)CCSc1ccccc1 | 7% | 0 |
| O=C(CSc1ccccc1)Nc1ccc(Sc2ccc([N+](=O)[O-])cc2)cc1 | -14% | 17 |
| O=C(OCc1ccco1)c1cc(S(=O)(=O)N2CCOCC2)c(Cl)cc1Cl | 10% | 2 |
| COCCn1c(C)cc(C(=O)CSc2nc3sc(C)c(C)c3c(=O)n2-c2ccccc2)c1C | -9% | -5 |
| COc1cc(OC)cc(C(=O)NCCSC2CCCCC2)c1 | 4% | 2 |
| Cc1c(-c2cccc(Cl)c2)nc2ccccc2c1C(=O)N1CCC2(CC1)OCCO2 | 13% | 4 |
| CC(C)C1Nc2ccc(S(N)(=O)=O)cc2C2C=CCC21 (stereo unspecified) | -3% | -1 |
| O=C(CCN1C(=O)c2ccc([N+](=O)[O-])cc2C1=O)Nc1ccccc1-c1ccccc1 | 9% | -3 |
| CN(C)C(=O)Oc1ccc2ccccc2c1Cl | 16% | 5 |
| Fc1ccc(-n2c(-c3ccc4c(c3)OCO4)n[nH]c2=S)cc1Cl | 16% | -1 |
| Cn1c(=O)c2c(n(C)c1=O)n(Cc1ccc(Cl)cc1Cl)c(=O)n2Cc1ccccc1Cl | 5% | 1 |
| N#CCCn1cc(C(=O)n2nnc3ccccc32)c(-c2cccs2)n1 | 0% | -5 |
| COc1ccc(C(=O)CN(CC(=O)c2ccc(OC)cc2)c2ccc(OC)cc2)cc1 | 20% | 5 |
| CC1CN(C(=O)COc2ccc3ccccc3c2Br)CC(C)O1 (stereo unspecified) | 7% | 3 |

Next section:
SMILES	V. cholerae motility	V. cholerae motility viability
CN(C)CCCn1c(N)c(-c2nc3ccccc3[nH]2)c2nc(C#N)c(C#N)nc21	-13%	9
Cc1ccccc1N(Cc1ccc(Cl)cc1Cl)S(C)(=O)=O	15%	12
CCOc1ccc(NC(=O)N(c2ccccc2)c2ccccc2)cc1	16%	-1
Cc1nc(NC(=O)COc2ccc(-c3ccccc3)cc2Br)sc1C	-5%	-3
COc1ccc2[nH]cc(CCNC(=O)NC34CC5CC(CC(C5)C3)C4)c2c1	5%	-3
S=C(Nc1ccccc1Oc1ccccc1)NC1CCCC1	19%	33
O=[N+]([O-])c1cc(Cl)ccc1N1CCCC1	47%	17
O=C1CCCN1c1ccc(S(=O)(=O)Nc2ccc(I)cn2)cc1	31%	9
Cc1cccc(-c2nc3c(c(SCC(=O)c4ccc(O)c(O)c4)n2)CCCC3)c1	14%	4
CC(C)(C)c1csc(NC(=O)c2ccc(Cl)s2)n1	27%	13
Cc1ccccc1C1CC(c2cccs2)Nc2nnnn21 (stereo unspecified)	8%	2
Clc1ccc2nc(-c3ccccn3)cc(-c3ccccc3)c2c1	-7%	-7
O=C(CSc1nnc(Cc2cccs2)n1-c1ccccc1)N1CCc2ccccc21	-14%	-8
Cc1cnn(C(=O)c2ccccc2[N+](=O)[O-])c1	133%	40
CCOC(=O)c1[nH]nc(N)c1-c1cccc(OC)c1	15%	10
COc1ccc(Cc2nnc(SCC(=O)Nc3cc(C(F)(F)F)ccc3Cl)o2)cc1	35%	15
O=C1C(=Cc2ccc(-c3ccc([N+](=O)[O-])cc3Br)o2)C(=O)c2ccccc21	0%	-3
COC(=O)COc1ccc(S(=O)(=O)NCCC2=CCCCC2)cc1Cl	12%	1
O=C(O)CNc1nc2ccccc2s1	28%	16
CCCCSc1nnc(NC(=O)CSc2nncn2C)s1	14%	4
CCN(CC)C(=O)N1CCN(c2ccccc2F)CC1	2%	-4
C=CCNCCOCCSc1ccc(Cl)cc1	1%	-6
O=C(O)C1C2C=CC(C2)C1C(=O)NCc1ccco1 (stereo unspecified)	-7%	-8
COc1ccc(OC)c(NC(=O)NNC(=O)COc2ccc(F)cc2F)c1	2%	-3
Cc1cc(C(=O)Nn2cnnc2)sc1-c1ccccc1	-22%	-12
O=C(Cc1cccc2ccccc12)NCCOCc1ccc(Cl)cc1	14%	3
CCCc1cc(=O)[nH]c(SCC(=O)NC(=O)OCC)n1	8%	-3
Cc1cc(C)c2cccc(NC(=S)NC(=O)c3ccco3)c2n1	-3%	0
Cc1ccc(C2CC(=O)Nc3cc4c(cc32)OCO4)o1 (stereo unspecified)	11%	3
COc1c(C)cc(Br)cc1C(=O)NC(=S)Nc1nc(C)cc(C)n1	-16%	-12

Five compounds picked at random from the list so far, as already listed:
SMILES	V. cholerae motility	V. cholerae motility viability
Cc1cc(C(=O)Nn2cnnc2)sc1-c1ccccc1	-22%	-12
O=C(Cc1cccc2ccccc12)NCCOCc1ccc(Cl)cc1	14%	3
C=CCNCCOCCSc1ccc(Cl)cc1	1%	-6
Cc1ccc(C2CC(=O)Nc3cc4c(cc32)OCO4)o1 (stereo unspecified)	11%	3
COc1ccc(OC)c(NC(=O)NNC(=O)COc2ccc(F)cc2F)c1	2%	-3

Other entries
SMILES	V. cholerae motility	V. cholerae motility viability
Cc1cc(C)nc(NC2=NCC(=O)N2CCc2c[nH]c3ccccc23)n1	8%	-2
Cc1ccc(NC(=O)c2cc(=O)c3ccccc3o2)cc1	-35%	-18
CC(=O)C(Sc1nc(NCc2ccccc2)nc(N(C)C)n1)C(C)=O	7%	7
O=C(NCc1ccc2c(c1)OCO2)Nc1ccc2snnc2c1	-8%	-11
COC(=O)c1ccccc1OCCCCn1cnc2ccccc2c1=O	2%	1
CCc1sc(C(=O)N2CCC3(CC2)OCCO3)cc1Br	8%	4
Cc1ccc(SCC(=O)NCCSC2CCCCC2)cc1	17%	6
C(=C/c1nccc2c1[nH]c1ccccc12)/c1ccc2c(c1)OCO2	17%	10
COc1ccc(N(CC(=O)NCC2CCCO2)S(C)(=O)=O)c(OC)c1 (stereo unspecified)	-6%	-12
Cc1ccc2occ(C(=O)c3ccco3)c(=O)c2c1	39%	14
CCCS(=O)(=O)N1CCN(c2ccccn2)CC1	-7%	-6
O=C(Nc1ccc(-c2nc3ccccc3o2)cc1)C1CCCO1 (stereo unspecified)	10%	30
CCCCNC(=O)C(=O)NCCCn1ccnc1	9%	6
O=C1N/C(=N/N=C/c2cccs2)SC1Cc1ccc(Br)cc1 (stereo unspecified)	34%	4
CC1CN(C2CC(C)(C)NC(C)(C)C2)CCC1=O (stereo unspecified)	6%	0
CCCc1[nH]nc2c1C(c1ccc(OC(=O)N3CCOCC3)c(OCC)c1)C(C#N)=C(N)O2 (stereo unspecified)	-24%	-5
CC(Sc1nc(-c2ccccc2)nc2ccccc12)C(=O)Nc1ccccc1C(F)(F)F (stereo unspecified)	3%	-2
Cc1ccc2nc(-c3ccccc3)c(CC(=O)O)c(C(=O)O)c2c1	-18%	-2
CCOC(=O)CSc1nc2ccccc2n2cnnc12	8%	2
O=C(c1ccccc1)c1ccc2nc(-c3cccc(NC(=O)C4CCCO4)c3)[nH]c2c1 (stereo unspecified)	8%	0

Source: PubChem BioAssay
